Screening results from PubChem.
NPYLR7 ag = activates Aedes aegypti NPYLR7 receptor; HEK293T NPYLR7/Galpha15, GCaMP6s calcium fluorescence; activation, % at 10 µM; actives 0.15% (n = 270,000); AID 1259423; in the data active means activation above about 40%;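 further: 0% = vehicle and 100% = reference agonist at the receptor; some compounds past the cut are filed as inactive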
NPYLR7 ag max-min = second read-out of NPYLR7 ag, no call of its own (marks repeat the call); activation, %; measured here: Max-Min RFU normalised activation; some inactives read as strong as hits;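 span of the calcium signal over five minutes; 0% = vehicle and 100% = native peptide agonist; compound fluorescence can raise it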
* hit, by the source's call; & = joins results of further samples. These rows are one share of the data; the hit share may differ from the screen's.

How did COc1ccc(OC)c(C2c3[nH]c4ccccc4c3CCN2C(=O)c2cc(F)ccc2C(F)(F)F)c1 (stereo not given) do in these assays?
NPYLR7 ag: 4; NPYLR7 ag max-min: -2

What do the screens show for `COc1ccccc1-c1cccc(-c2cccc(NC(=O)c3c(C)noc3C)c2)n1`?
NPYLR7 ag: 12; NPYLR7 ag max-min: 13

Results for C=CCn1c(O)c(N=NC(=O)c2cccc(C)c2)c2ccccc21 ?
NPYLR7 ag: -14; NPYLR7 ag max-min: -16

How did COc1ccc(CC2c3nc(-c4ccc(Cl)cc4)ncc3C(=O)N2C)cc1 (stereo not given) do in these assays?
NPYLR7 ag: -9; NPYLR7 ag max-min: -11

How did CCC(C(N)=O)N1CCC(CN2CCCCC2)C1 (stereo not given) do in these assays?
NPYLR7 ag: -1; NPYLR7 ag max-min: -4

Results for Cc1ccc(-n2cc(-c3ccccc3)c3c(=O)[nH]cnc32)cc1 ?
NPYLR7 ag: -7; NPYLR7 ag max-min: -12

How did CC1=C(C)N(c2ccccc2)NC(=S)S1 do in these assays?
NPYLR7 ag: 0; NPYLR7 ag max-min: -1

What do the screens show for `CN(CCN1CCOC1=O)CCN(C)c1ccccc1`?
NPYLR7 ag: 1; NPYLR7 ag max-min: -2

What do the screens show for `CN(C(=O)C1CC1c1ccco1)c1ccccc1S(C)(=O)=O` (stereo not given)?
NPYLR7 ag: 4; NPYLR7 ag max-min: 1

What do the screens show for `CN(c1ncccc1C(=O)N1CCOC2(CNCCOC2)C1)C1CCCCC1` (stereo not given)?
NPYLR7 ag: 9; NPYLR7 ag max-min: 5

What do the screens show for `O=C1CC(=NCc2ccco2)C2(CCCCC2)O1`?
NPYLR7 ag: 11; NPYLR7 ag max-min: 4

What do the screens show for `O=C(Cc1cccc(F)c1)NNC(=O)c1cccs1`?
NPYLR7 ag: 7; NPYLR7 ag max-min: 3

How did COc1ccccc1CN(CC(O)COCc1ccccc1)C1CC1 (stereo not given) do in these assays?
NPYLR7 ag: -7; NPYLR7 ag max-min: 0

How did CC(C)CN(Cc1c(F)cccc1F)Cc1cccn1Cc1ccc(C(F)(F)F)cc1 do in these assays?
NPYLR7 ag: 1; NPYLR7 ag max-min: 9

Results for Cn1c(CSc2nc3ccccc3n2CCOc2ccccc2F)nc2ccccc21 ?
NPYLR7 ag: 7; NPYLR7 ag max-min: 14

How did CN1OC(C)(CC(=O)NCc2cccc(O)c2)N=C1c1cccc2ccccc12 (stereo not given) do in these assays?
NPYLR7 ag: 0; NPYLR7 ag max-min: -1

How did O=C(c1ccc(C(F)(F)F)cc1)C1CCCN(C(=O)c2cnccn2)C1 (stereo not given) do in these assays?
NPYLR7 ag: 3&-2; NPYLR7 ag max-min: -2&-4

What do the screens show for `COCCCNC(=O)C(C1CCCC1)N1CCN(C(=O)c2cc(F)cc(F)c2)CC1` (stereo not given)?
NPYLR7 ag: -2; NPYLR7 ag max-min: 4

What do the screens show for `CC(=O)N1CCN(C(=O)/C=C/c2ccc(-c3ccc(Br)cc3)s2)CC1`?
NPYLR7 ag: 2; NPYLR7 ag max-min: 1

How did CCOc1ccc(-n2nnnc2CNC(=O)c2ccc(OCC)c(OCC)c2)cc1 do in these assays?
NPYLR7 ag: 6; NPYLR7 ag max-min: 5

Results for CCN(CC)S(=O)(=O)c1c(C)c(C)c(C)c(C)c1C ?
NPYLR7 ag: 8; NPYLR7 ag max-min: 8

Results for CCCCn1c(N)c(N(CCC(C)C)C(=O)CCCCl)c(=O)[nH]c1=O ?
NPYLR7 ag: -4; NPYLR7 ag max-min: -11

How did CC(C)n1cc2c(n1)CC(N)CC2 (stereo not given) do in these assays?
NPYLR7 ag: -3; NPYLR7 ag max-min: -3

What do the screens show for `Cc1ccc(C)c(C(C)NCC(=O)Nc2cccc3nsnc23)c1` (stereo not given)?
NPYLR7 ag: 8; NPYLR7 ag max-min: 5

Results for COc1ccccc1C1CC(c2ccccc2)=NN1c1ccccc1 (stereo not given) ?
NPYLR7 ag: -1; NPYLR7 ag max-min: -8

Results for Cc1cc(/C=C(\C#N)C(N)=S)c(C)c(Cn2ccc(C(F)(F)F)n2)c1 ?
NPYLR7 ag: -8; NPYLR7 ag max-min: -21

Results for COCCOC(=O)C1=C(C)NC(=O)NC1c1ccc(F)cc1 (stereo not given) ?
NPYLR7 ag: -2; NPYLR7 ag max-min: -9

How did C/C(=N/N=C1\NC(=O)C(CC(=O)Nc2ccccc2C)S1)C(C)(C)C (stereo not given) do in these assays?
NPYLR7 ag: 5; NPYLR7 ag max-min: 3

How did O=C(Oc1ccccc1)c1ccc(S(=O)(=O)NC2CC2)cc1 do in these assays?
NPYLR7 ag: 11; NPYLR7 ag max-min: 13

Results for CCOc1ncccc1-c1ccc[nH]c1=O ?
NPYLR7 ag: 9; NPYLR7 ag max-min: 6

Results for CCc1cc(=O)[nH]c(-n2nc(C)cc2NC(=O)C(c2ccccc2)c2ccccc2)n1 ?
NPYLR7 ag: 9; NPYLR7 ag max-min: 3

How did CCC(=O)c1cc(F)ccc1OCC(=O)NC(C)(C)C do in these assays?
NPYLR7 ag: 6; NPYLR7 ag max-min: 2

Results for c1ccc(CNc2ncnc3scc(-c4cccs4)c23)nc1 ?
NPYLR7 ag: -4; NPYLR7 ag max-min: -4

What do the screens show for `CC1CCN(C(=O)CN2Cc3ccccc3OC(c3ccccc3F)C2)CC1` (stereo not given)?
NPYLR7 ag: 16; NPYLR7 ag max-min: 4

Results for CN1CCC2(CC1)CC(=O)c1cc(-c3ccc(C(=O)N4CCN(CCO)CC4)cc3)ccc1O2 ?
NPYLR7 ag: -1; NPYLR7 ag max-min: 4

What do the screens show for `O=S1(=O)CCN2C(=N1)SC1=C2CCN(Cc2ccccc2)C1`?
NPYLR7 ag: 0; NPYLR7 ag max-min: 1

Results for O=S(=O)(N1CCCC1)N1CCN(c2nccc(CCC(F)(F)F)n2)CC1 ?
NPYLR7 ag: 3; NPYLR7 ag max-min: -3

Results for O=C1Nc2ccc(Cl)cc2/C1=C\c1ccc(Br)s1 ?
NPYLR7 ag: 0; NPYLR7 ag max-min: -2

How did Cc1cccc(C(=O)Nc2cc(-c3cccs3)nn2-c2nc(C(C)C)cc(=O)[nH]2)c1 do in these assays?
NPYLR7 ag: 4; NPYLR7 ag max-min: 2

Results for C#CCN(CC=C)C(=O)CC1C(=O)NCCN1C1CCCC1 (stereo not given) ?
NPYLR7 ag: 6&2; NPYLR7 ag max-min: 7&-2

How did COc1ccc(S(=O)(=O)NCc2ccc3c(c2)OCO3)cc1C(C)(C)C do in these assays?
NPYLR7 ag: 0; NPYLR7 ag max-min: -8

Results for CC(=NNc1nc(C)cc(=O)[nH]1)C1CC1 ?
NPYLR7 ag: 6; NPYLR7 ag max-min: 11

Results for Cc1ccsc1CN(C)C(=O)CC(c1ccccc1)c1ccc2c(c1)OCO2 (stereo not given) ?
NPYLR7 ag: 0; NPYLR7 ag max-min: -1

What do the screens show for `COc1ccc(C)cc1NC(=O)N(C)C(C)c1nc(C)sc1C` (stereo not given)?
NPYLR7 ag: 20; NPYLR7 ag max-min: 13

Results for CC1CC1CN(C(=O)c1c[nH]c(=O)c(Br)c1)C(C)C (stereo not given) ?
NPYLR7 ag: 7; NPYLR7 ag max-min: 6

What do the screens show for `CN1CCC2(CC1)CN(C(=O)c1cc(=O)c3ccccc3o1)CCN2C`?
NPYLR7 ag: 0; NPYLR7 ag max-min: 6

Results for COC(=O)c1cc(Cl)c(NC(=O)c2c(-c3ccccc3Cl)noc2C)cc1OC ?
NPYLR7 ag: 0; NPYLR7 ag max-min: -1

Results for CCNC(=O)N1CCN(c2nc(-c3ccccc3)nc(C)c2Cc2ccc(Cl)cc2Cl)CC1 ?
NPYLR7 ag: 8; NPYLR7 ag max-min: 10

How did COC(=O)C1=C(C)N(c2cc(C)cc(C)c2)C(=O)C1 do in these assays?
NPYLR7 ag: 7; NPYLR7 ag max-min: 7

Results for Cc1ccc(-n2nc(-c3ccc(F)cc3)cc2C(=O)O)c(C)c1 ?
NPYLR7 ag: 16; NPYLR7 ag max-min: 27

What do the screens show for `CC(C)c1ocnc1C(=O)N1CCC(c2cc(Cc3ccccc3)[nH]n2)CC1`?
NPYLR7 ag: -4; NPYLR7 ag max-min: -4

How did CC(C)=CCC/C(C)=C/C(=O)N1CCC(c2ccccc2)CC1 do in these assays?
NPYLR7 ag: -1; NPYLR7 ag max-min: -7

What do the screens show for `COc1nn(C)cc1C(=O)OCc1cc(-c2cccs2)on1`?
NPYLR7 ag: -2; NPYLR7 ag max-min: -4

What do the screens show for `CCCCSc1nnc2c(n1)OC(c1ccc(C)cc1)Nc1ccccc1-2` (stereo not given)?
NPYLR7 ag: 4; NPYLR7 ag max-min: -3

Results for CCc1ccc(NC(=O)Cn2nc(-c3ccc(F)cc3)c3sc(N4CCCC4)nc3c2=O)cc1 ?
NPYLR7 ag: -2; NPYLR7 ag max-min: -4

Results for Cc1nnc2n(c1=O)N=C(c1ccc3c(c1)NC(=O)CO3)CS2 ?
NPYLR7 ag: -1; NPYLR7 ag max-min: 0

How did CC(CNc1ccc(S(C)(=O)=O)cc1S(C)(=O)=O)Cn1ccnc1 (stereo not given) do in these assays?
NPYLR7 ag: 8; NPYLR7 ag max-min: 7

Results for Cc1ccc(Cn2c(C)c(C(=O)Nc3ccc(C)cc3)sc2=O)cc1 ?
NPYLR7 ag: -1; NPYLR7 ag max-min: -3

What do the screens show for `O=C(c1cnc(Nc2ccccc2)nc1)N1CCCn2cncc2C1`?
NPYLR7 ag: 21; NPYLR7 ag max-min: 13

How did CCC(C(=O)N(Cc1cc(NC(=O)c2cccc(F)c2)ccc1N(C)C)C(C)C(C)C)c1ccccc1 (stereo not given) do in these assays?
NPYLR7 ag: 19; NPYLR7 ag max-min: 12

What do the screens show for `O=C1c2ccccc2C(=O)c2c(NC(=O)C(c3ccccc3)c3ccccc3)cccc21`?
NPYLR7 ag: -3; NPYLR7 ag max-min: -10

Results for O=C(Nc1cccc(-c2ccc(F)cc2)c1)C1CCCN(C(=O)c2ccco2)C1 (stereo not given) ?
NPYLR7 ag: 2; NPYLR7 ag max-min: -2

What do the screens show for `CCNC(=O)CC1C(=O)N(c2ccc(C)cc2)C(=O)N1CCc1sccc1C` (stereo not given)?
NPYLR7 ag: -2; NPYLR7 ag max-min: 9

How did Cc1ccc2nc(-c3cccc(Cl)c3)c(NC(=O)C(C)C)n2c1 do in these assays?
NPYLR7 ag: 1; NPYLR7 ag max-min: 3

Results for CCCCCCCC(=O)Nc1c(-c2ccc(OC)cc2)nc2ccccn12 ?
NPYLR7 ag: -2; NPYLR7 ag max-min: 6

How did O=c1c2ccccc2nnn1CCOc1ccc2ccccc2c1 do in these assays?
NPYLR7 ag: 14; NPYLR7 ag max-min: 11

How did CCC(C)C(N)C(=O)Nc1c(C)n[nH]c1C (stereo not given) do in these assays?
NPYLR7 ag: 0; NPYLR7 ag max-min: 1

Results for O=C(N=Nc1c(O)[nH]c2ccc(Br)cc12)C12CC3CC(CC(C3)C1)C2 ?
NPYLR7 ag: 3; NPYLR7 ag max-min: 6

Results for COc1cccc(-c2cc(C(=O)Nc3ccc(C)c(C)c3)n3nc(C(C)(C)C)cc3n2)c1 ?
NPYLR7 ag: 6; NPYLR7 ag max-min: 6

How did O=C(NCCc1ccncc1)c1cn(CCC2CCCCC2)nn1 do in these assays?
NPYLR7 ag: -1; NPYLR7 ag max-min: -4

How did COc1cccc(Oc2cnn(-c3ccccc3)c(=O)c2Nc2cccc(C(=O)NCC3CCCO3)c2)c1 (stereo not given) do in these assays?
NPYLR7 ag: 4; NPYLR7 ag max-min: 7

How did COc1ccc(OCc2ccc(-c3nc(C#N)c(NC4CC4)o3)o2)cc1 do in these assays?
NPYLR7 ag: 10; NPYLR7 ag max-min: 12

Results for Cc1cc(C)cc(N2CCN(C(=O)Cc3ccccc3)C(C)C2=O)c1 (stereo not given) ?
NPYLR7 ag: -9; NPYLR7 ag max-min: -2

How did COCc1ccc(C(=O)N2CCOC(CCCc3ccccc3)C2)o1 (stereo not given) do in these assays?
NPYLR7 ag: 21; NPYLR7 ag max-min: 7

Results for CCc1nn(C(C)C(=O)NC)c(=O)c2cc3occc3n12 (stereo not given) ?
NPYLR7 ag: 7; NPYLR7 ag max-min: 8

How did O=C(c1ccc(Cl)nc1)N1CCC(c2nc(-c3ccc(C(F)(F)F)cc3)no2)CC1 do in these assays?
NPYLR7 ag: 13; NPYLR7 ag max-min: 8

Results for CC(=O)NC(C(=O)Nc1nc2c(C)ccc(C)c2s1)C(C)C (stereo not given) ?
NPYLR7 ag: 3; NPYLR7 ag max-min: 2
